Screens: PubChem BioAssay, National Center for Advancing Translational Sciences (NCATS)
2A Renilla = lowers the Renilla signal of an FMDV 2A StopGo reporter; HEK cells with a luciferase reporter of 2A StopGo recoding; Potency, µM (highest dose often 57.5 µM), for inactives: at the top dose signal change, negative = less light; 120,000 tested, 0.32% active; active means well fitted falling curve with a large enough effect; inconclusive means small, poorly fitted or top-dose-only effect; inactive means no such curve, though single readings can be large or run the other way; also: nearly all actives have a fitted effect of over 55% in size; overnight with compound
2A firefly = lowers the firefly signal of an FMDV 2A StopGo reporter; Potency, µM (titrated, usually from 57.5 µM), without a hit: top-dose signal change, negative = less light; HEK cells with a luciferase reporter of 2A StopGo recoding; 120,000 tested, 0.23% active; active = well fitted falling curve with a large enough effect; inconclusive = small, poorly fitted or top-dose-only effect; inactive = no such curve, though single readings can be large or run the other way; also: nearly all actives have a fitted effect of over 60% in size; overnight with compound
* hit, by the source's call; ? = inconclusive; [ ] = remark or other dose. % is scaled to controls: 0 for no effect and ±100 for the full control effect; potency is read from the fitted curve at half-maximal effect. A portion of the library, so the mix of outcomes need not match the whole.

SMILES | 2A Renilla | 2A firefly
O=C(CSc1ccc2c(c1)OCCCO2)Nc1ccccc1Oc1ccccc1 | ? | -28.0%
N#Cc1c(-n2ncnc2-c2ccccc2C(F)(F)F)sc2c1CCCCC2 | -9.0% | 41.6%[activator]
COc1ccc(CN(C(=O)COC(=O)c2n[nH]c(=O)c3ccccc23)C2CC2)cc1 | 3.9% | 23.2%
O=C(NCc1cccnc1)c1nn(-c2ccccc2F)nc1CO | -0.8% | ?
CC(=O)c1c(C)n([O-])c2cc(F)c(F)cc2[n+]1=O | ? | ?
Nc1nccnc1C(=O)NCc1ccnc(-n2cccn2)c1 | -26.5% | -5.8%
Cc1oc(-c2ccccc2)nc1CC(=O)N1CCC(C(N)=O)CC1 | -14.6% | -5.8%
COc1ccc2[nH]c(C)c(CCNS(=O)(=O)c3cc(F)ccc3OC)c2c1 | 266.9%[activator] | 9.4%
CN1CCN(S(=O)(=O)c2cc3cc(Cl)ccc3oc2=O)CC1 | 5.4% | 23.3%
Nc1nccnc1C(=O)NCCNc1ccc(C(F)(F)F)cn1 | 10.7% | 48.0%[activator]
CCOCCCNC(=O)C1CCN(C(=O)c2cc3sccc3n2C)CC1 | -11.0% | -7.4%
COc1cccc(-c2nc(-c3c[nH]c(C(=O)N4CCCC4)c3)cs2)c1 | ? | 0.0%
CCOC(=O)N1CCC(NC(=O)c2ccc3c(c2)N(Cc2ccccc2C)C(=O)c2ccccc2S3=O)CC1 (stereo unspecified) | 13.3% | -3.0%
Cc1ccc(NC(=O)CN(C)CC(=O)NC2(C#N)CCCCC2)cc1 | 12.2% | 0.0%
Cc1cc2oc(=O)cc(CN3CCN(C)CC3)c2cc1Cl | -13.0% | 2.7%
Cc1ccc(C)c(N2CCN(C(=O)CN3C(=O)COc4ccc(S(=O)(=O)N5CCOCC5)cc43)CC2)c1 | -15.2% | -6.8%
CCOC(=O)c1ccc(NC(=O)c2c(NCc3cccc(OC)c3OC)sc3c2CCC3)cc1 | -6.9% | 12.9%
Cc1ccc2nc(C)c(C(=O)N3CCCc4ccccc43)cc2c1 | 23.0% | 24.5%
CCc1cccc2c(C3=CCN(C(=O)c4ccccc4)CC3)c[nH]c12 | -4.3% | 70.5%[activator]
CC(C)CC(C)(C#N)NC(=O)CCCc1c[nH]c2ccccc12 (stereo unspecified) | 73.1%[activator] | 0.0%
CC(CN1CCCC1)OC(=O)C(c1ccccc1)c1ccccc1 (stereo unspecified) | -1.1% | -13.9%
COc1ccc(NC(=O)CCN2CCN(CCO)CC2)cc1 | -20.4% | -18.4%
CC(C)(C)CC(=O)Nc1nc2c(s1)C(=O)CC(C)(C)C2 | 2.0% | 120.7%[activator]
CC(C(=O)NC1CC1)S(=O)(=O)Cc1cc(Cl)c2c(c1)OCO2 (stereo unspecified) | 4.4% | 20.4%
O=C(CSc1nnc(-c2ccc(S(=O)(=O)N3CCCCCC3)cc2)o1)c1ccc(F)cc1 | 6.9% | 6.6%
More entries follow:
SMILES | 2A Renilla | 2A firefly
O=C(NCc1ccc(Cl)cc1Cl)c1cccc(N2CCCS2(=O)=O)c1 | 11.0% | 25.5%
C[C@@H]1CC[C@@]2(OC1)O[C@H]1C[C@H]3[C@@H]4CC[C@H]5C[C@@H](O)CC[C@]5(C)[C@H]4CC(=O)[C@]3(C)[C@H]1[C@@H]2C | -8.1%[5.77 µM] | -12.3%[5.23 µM]
Cc1cccc(C(=O)Nc2ccc(N(C)C)cc2)c1 | 22.7% | 159.1%[activator]
Cc1cnc(NC(=O)c2sccc2-c2ccccc2)s1 | 55.9%[activator] | 128.5%[activator]
COc1cc(C(=O)NCc2nc3ccccc3n2C(C)C)cc(OC)c1OC | ? | ?
Cc1cccc(NC(=O)CSCc2nc(-c3ccccc3)oc2C)c1 | 8.6% | 1.7%
CC(=O)Nc1ccc(C(=O)OC(C)C(=O)C23CC4CC(CC(C4)C2)C3)cc1 (stereo unspecified) | -8.3% | 49.3%[activator]
CCOC(=O)c1ccc2nc(C)cc(Nc3ccc(OC(C)C)cc3)c2c1 | ? | ?
Cc1ccc(-c2c3c(=O)n(C)c(=O)n(C)c3c3n2C(C)(C)COC3c2ccc(C)cc2O)cc1 (stereo unspecified) | -0.5% | 4.8%
COc1ccc(NC(=O)C2=C(C)Nc3c(C(=O)Nc4ccc(C)cc4)cnn3C2c2cc(OC)ccc2OC)cc1 (stereo unspecified) | 3.5% | -10.1%
CCCN(Cc1cc(=O)[nH]c2c(OC)cccc12)C(=O)Nc1ccccc1OCC | -1.5% | 6.3%
CCc1ccc2oc(-c3cccc(NC(=O)COc4ccc([N+](=O)[O-])cc4)c3)nc2c1 | 24.4% | 214.7%[activator]
CCOC(=O)c1sc(NC(=O)C2c3ccccc3Oc3ccccc32)c(C#N)c1C | -10.5% | ?
CCc1cccc(NC(=O)C2CCC(CNS(=O)(=O)c3csc(C(N)=O)c3)CC2)c1 (stereo unspecified) | 41.2% | 30.4%
COC(=O)c1cnc(NC(=O)C(NC(=O)c2ccccc2Br)C(C)C)s1 (stereo unspecified) | 2.5% | -3.8%
O=C(O)c1ccnc(C2CCCC/C2=N\O)c1 (stereo unspecified) | -3.5% | -3.6%
CCc1nn2c(ncc3c(=O)n(-c4n[nH]c(C)n4)ccc32)c1-c1ccccc1 | -7.8% | 24.3%
CCCN(CCC)CCCNC(=O)c1cc2c(-c3ccc(OC)c(OC)c3)nn(C)c2s1 | -11.5% | 3.2%
Cc1ccc(-c2nc3c4c(-c5ccccc5)c(-c5ccccc5)oc4ncn3n2)cc1 | -4.3% | 15.0%
CC(NC(=O)c1ccc(Cl)c(Cl)c1)C1CC2CCC1C2 (stereo unspecified) | 3.9% | -4.7%
COCCNc1sc(S(=O)(=O)c2ccc(C)cc2)nc1S(=O)(=O)c1ccc(C)cc1 | -0.1% | -11.3%
O=c1c2cc3c(cc2n(Cc2ccc(Cl)cc2)c(=O)n1Cc1nc(-c2ccccc2)no1)OCO3 | -9.4% | -12.3%
C=CCNC(=O)NC(=O)CNc1cc(C(F)(F)F)cc(C(F)(F)F)c1 | -1.2% | 14.5%
Cc1nc2ccc(NS(=O)(=O)c3cccs3)cc2s1 | 58.2%[activator] | 0.3%
Cc1ccc(-c2nc(CSc3ccc4c(c3)OCCO4)co2)cc1 | 3.3% | 35.0%[activator]
(continued)
SMILES | 2A Renilla | 2A firefly
O=c1c2ccccc2nc(SCc2nc(-c3ccccc3)no2)n1CCCO | 21.2% | 13.5%
CC(=O)c1ccc(OCC(=O)Nc2ccc3oc(C)nc3c2)cc1 | -20.0% | -0.4%
CCOC(=O)c1cccc2c1N[C@@H](c1ccc(F)cc1)[C@H]1CC=C[C@@H]21 | -5.6% | -8.5%
Cc1cccc(NC(=O)Nc2ccc(F)c(Cl)c2)n1 | -8.2% | 142.6%[activator]
O=C(Nc1cccc(Br)c1)C1C2C3CCC(C3)C12 (stereo unspecified) | 9.4% | 152.9%[activator]
CC(=O)c1cn(CCOc2cccc3ccccc23)c2ccccc12 | 12.6µM* | ?
O=C(NCc1ccncc1)c1cc(-c2ccccn2)nc2cc(F)ccc12 | -3.0% | 2.5%
Cc1nc(-c2ccc(Cl)cc2)sc1C(=O)N1CCN(Cc2ccc(C#N)cc2)CC1 | -6.3% | 0.0%
COc1ccc(-c2cc3ccc(OCCN4CCN(CCO)CC4)cc3oc2=O)cc1 | -6.6% | 152.1%[activator]
Cc1cc(C)c(NCC(=O)NNC(=O)c2cnccn2)c(C)c1 | -7.5% | -3.2%
COc1ccc(-c2cc(C(=O)N(C)C)c3ccccc3n2)cc1 | 50.6%[activator] | 111.6%[activator]
CC(NC(=O)c1ccco1)c1nc(-c2ccccc2)no1 (stereo unspecified) | -7.3% | -11.8%
COc1ccc(C2c3cccn3CCN2S(=O)(=O)c2c(C)cc(C)cc2C)cc1OC (stereo unspecified) | 43.9%[activator] | -2.0%
Cc1ccc(C(=O)N2c3ncnn3C3(CCCCC3)[C@@H]3CCCC[C@@H]32)cc1 | 34.8%[activator] | -20.2%
CC1=C(c2ccc(C)c(C)c2)S(=O)(=O)N=C1N1CCC(C(=O)NCc2ccccc2C)CC1 | 4.6% | -16.1%
Cc1ccc(-n2nnnc2C2CCN(S(=O)(=O)c3ccc(OC(F)(F)F)cc3)CC2)cc1 | -0.3% | 9.6%
CN1C(=O)C(NC(=O)C(=O)NCCc2c[nH]c3ccc(F)cc23)c2ccccc21 (stereo unspecified) | -12.5% | 3.1%
O=C(CSc1nnc2ccc(-c3cccs3)nn12)NC1CCCC1 | 12.3% | 17.5%
Cc1cc(CNC(=O)CCc2ncc(-c3ccccc3)o2)ccc1F | -16.0% | -17.3%
Cc1nc(Nc2nc3ccccc3o2)nc(C)c1C(=O)Nc1cccc(C(F)(F)F)c1 | 3.7% | 67.4%[activator]
COc1ccc(-c2c(C(=O)O)sc3c2NC(=O)CC32C(=O)N(C)c3c(C)cccc32)cc1 (stereo unspecified) | -12.6% | -8.0%
CNC(=S)NNC(=O)c1ccc(Br)cc1 | 0.8% | 18.4%
CC(=O)Nc1ccc(NC(=O)c2c(C)nn(-c3ccccc3)c2-n2cccc2)cc1 | -12.9% | 33.3%[activator]
CCN(C(=O)c1oc2ccc(S(=O)(=O)N3CCCCCC3)cc2c1C)c1ccccc1 | 57.9%[activator] | 1.0%
C=CCNC(=O)NC(=O)CN(CCC(=O)OC)Cc1ccccc1 | 0.9% | -5.9%

4 entries from above, as comma-separated lines.
structure,2A Renilla,2A firefly
CCc1ccc2oc(-c3cccc(NC(=O)COc4ccc([N+](=O)[O-])cc4)c3)nc2c1,24.4%,214.7%[activator]
CCOC(=O)c1sc(NC(=O)C2c3ccccc3Oc3ccccc32)c(C#N)c1C,-10.5%,?
CCc1cccc(NC(=O)C2CCC(CNS(=O)(=O)c3csc(C(N)=O)c3)CC2)c1 (stereo unspecified),41.2%,30.4%
COC(=O)c1cnc(NC(=O)C(NC(=O)c2ccccc2Br)C(C)C)s1 (stereo unspecified),2.5%,-3.8%

(further entries)
SMILES | 2A Renilla | 2A firefly
Cc1nnc(NC(=O)c2cccn(Cc3ccc(Cl)cc3)c2=O)s1 | -11.4% | -13.6%
Cc1ccc(F)cc1NC(=O)COC(=O)c1n[nH]c(=O)c2ccccc12 | -7.4% | 0.8%
Cc1oc2ncnc(N3CCCCC3)c2c1C(=O)Nc1cccc(Cl)c1C | 4.3% | -28.7%
Cc1nc2cc(F)ccc2cc1C(=O)N1CCN(S(=O)(=O)c2ccccc2C#N)CC1 | -18.0% | -10.1%
O=C(Cn1nc(-c2ccccc2F)ccc1=O)N1CCc2ccccc2C1 | -7.7% | 2.6%
Cc1ccc(CN2C(=O)c3ccccc3Sc3ccc(C(=O)NC4CCCCC4)cc32)cc1 | -7.1% | 11.6%
CCCNc1nc2ccccc2nc1C(=O)Nc1cccc(OC)c1 | 6.8% | 10.3%
O=C1CCCC2=C1C(c1ccc(OC(F)F)cc1)C=C1c3cc4c(cc3CCN12)OCCCO4 (stereo unspecified) | -10.2% | 0.2%
Cc1c(Cl)cccc1NC(=O)c1ccc2c(c1)nnn2C1CCCC1 | 70.9%[activator] | 112.5%
COc1ccc(CNC(=O)c2ccc(-c3nc(CSc4ccccc4)c(C)o3)cc2)cc1OC | 1.0% | -17.7%
CCOc1ccc(NC(=O)Cn2ncc3ccccc3c2=O)cc1 | -22.4% | -1.0%
COc1ccc(C)cc1NC(=O)CCn1nc(-c2cccs2)oc1=O | -14.2% | -10.9%
CCc1nnc2sc(-c3ccc(C)c(NC(=O)c4ccc(Br)o4)c3)nn12 | -2.5% | 3.7%
CCC(C)c1ccc(NC(=O)Cc2cccs2)cc1 (stereo unspecified) | 85.8%[activator] | 83.7%[activator]
Cc1nc2c(ccc3ccccc32)c(C)c1C | 12.4% | 76.1%[activator]
Clc1cccc(/C=N/N=C/c2cccc(Cl)c2)c1 | -0.8% | 54.5%[activator]
CC(Sc1nc(CN2CCOCC2)nc2ccccc12)C(=O)Nc1ccccc1F (stereo unspecified) | -24.8% | -20.3%
CCOc1ccc2nc(NC(=O)c3nn(C(C)C)c(=O)c4ccccc34)sc2c1 | -3.3% | 15.3%
NS(=O)(=O)c1ccc(N/N=C/c2cccc([N+](=O)[O-])c2)cc1 | 5.8% | 85.1%[activator]
Cc1[nH]nc2c1C(c1ccc(-c3ccccc3Cl)o1)SCC(=O)N2 (stereo unspecified) | -20.0% | -12.2%
CC(NC(=O)CSc1nnc(-c2nn(Cc3ccccc3)c(=O)c3ccccc23)o1)c1ccccc1 (stereo unspecified) | -0.4% | 7.8%
CC(OC(=O)Cn1[nH]c(=O)c2ccccc2c1=O)C(=O)Nc1ccc(Br)cc1 (stereo unspecified) | 16.0% | 0.0%
COc1ccc2c(C)cc(SCC(=O)N3CCCCCC3)nc2c1 | 15.7% | 5.4%
CC(COc1ccc(Cl)cc1)CN1CCC(C(O)(c2ccccc2)c2ccccc2)CC1 (stereo unspecified) | 10.0% | 32.2%[activator]
CCOC(=O)c1c(C)sc2c1OC(N)=C(C#N)C21C(=O)N(Cc2cccc(F)c2)c2ccccc21 (stereo unspecified) | 0.0% | 0.0%
Cc1ccc(CN(Cc2ccco2)C(=O)c2oc3ccc(C)cc3c2C)cc1 | 15.3% | 1.8%
COc1ccc(C2C=C(c3ccc(Br)cc3)Nc3nnnn32)c(OC)c1 (stereo unspecified) | -11.4% | 10.9%
O=C(Nc1ccccn1)C1=C(c2ccccc2)S(=O)(=O)CCO1 | ? | -13.6%
Cc1ccc(NC(=O)CSc2nnc(N)s2)c(C)c1 | 0.6% | 99.6%[activator]

3 entries from above, field by field:
> Clc1cccc(/C=N/N=C/c2cccc(Cl)c2)c1
  2A Renilla: -0.8%
  2A firefly: 54.5%[activator]
> O=C(Cn1nc(-c2ccccc2F)ccc1=O)N1CCc2ccccc2C1
  2A Renilla: -7.7%
  2A firefly: 2.6%
> CC(COc1ccc(Cl)cc1)CN1CCC(C(O)(c2ccccc2)c2ccccc2)CC1 (stereo unspecified)
  2A Renilla: 10.0%
  2A firefly: 32.2%[activator]
